Sa growth 42C: blocks Staphylococcus aureus growth | 0.53% of 170,000 active | relative growth, % (test concentration not listed) | S. aureus RN4220 growth, OD600, 20 h, 42 °C; hits give low values | AID 720641;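 active = growth at 42 °C up to 50% and 20 or more points under that at 30 °C, or under 10% at both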;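 also: 300 nL library stock went into each well; scaled to the means of positive and negative controls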
GIV-Gai inh: inhibitors of GIV GBA-motif binding to rat Galpha-i3; Galpha-i3/FITC-GIV peptide fluorescence polarization, 90 min; hits give low values; scaled: aluminum fluoride 0%, vehicle 100%; percent of control (FP), % (test concentration not listed); 0.42% of 210,000 active;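 active = replicate mean at 85% of control or lower, very high polarization wells dropped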;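 also: wells of about 15 µL received 100 nL stock; the first replicate is given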
Target sequence (P08753 whole entry, looked up): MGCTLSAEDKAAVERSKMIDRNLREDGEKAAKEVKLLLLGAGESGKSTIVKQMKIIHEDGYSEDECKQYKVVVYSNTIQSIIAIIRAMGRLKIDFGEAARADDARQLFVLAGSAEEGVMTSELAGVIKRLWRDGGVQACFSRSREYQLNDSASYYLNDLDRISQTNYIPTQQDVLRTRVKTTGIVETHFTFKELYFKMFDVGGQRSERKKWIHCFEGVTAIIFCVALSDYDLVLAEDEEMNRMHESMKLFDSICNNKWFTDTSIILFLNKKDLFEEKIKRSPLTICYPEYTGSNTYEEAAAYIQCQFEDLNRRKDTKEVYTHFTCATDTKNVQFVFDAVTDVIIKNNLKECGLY
HCMV UL50-53 inh: inhibitors of HCMV UL50-UL53 nuclear egress complex interaction | HTRF UL50-UL53 interaction, normalized percent inhibition | inhibition, % (no concentration beside the values) | 0.15% of 190,000 active;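 active = both replicates at 50% or more, plus weaker picks with an unusually low signal ratio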;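 also: stock transfer was 100 nL into about 20 µL; 0% = negative control wells and 100% = wells with untagged competitor protein; inactives centre near -12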
Sa growth 42C second temp: further read-out of Sa growth 42C, marked with its call; relative growth, %; measured here: growth at 30 °C;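 optical density after 20 h as mean of two plates; 100% = untreated growth and lower means inhibition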
* hit, by the source's call; x = no result given; & = joins results of further samples.

canonical_smiles	GIV-Gai inh	Sa growth 42C second temp	HCMV UL50-53 inh	Sa growth 42C
CCN(C(=O)c1ccc(OC)cc1)c1ccccc1OC	98	103	1	107
O=C1COc2ccc(C(=O)N3CCCCC3)cc2N1	102	x	-5	x
O=C(c1cc2ccccc2oc1=O)N1CCSC1c1ccc(Br)cc1 (stereo unspecified)	108	x	-1	x
CC(=O)Nc1cc(C(=O)NCc2ccccc2)ccc1Sc1ccc(Cl)cc1	100	93	x	119
CN(CC(=O)N1CCn2c1nc1ccccc12)S(=O)(=O)c1ccc2c(c1)CCC(=O)N2	103	85	1	90
COc1ccccc1Nc1cc(C(=O)NCCCN(C)C2CCCCC2)c2ccccc2n1	109	76	-5	86
Cc1ccc(C2=NNC3(CCOC(C)(C)C3)S2)cc1 (stereo unspecified)	x	60	-11	69
Cc1c(C(=O)Nc2cccc(Cl)c2)sc2nc3n(c(=O)c12)N=C(c1cccc(Br)c1)CS3	97	93	x	91
O=C(O)c1ccc(-c2nnco2)cc1	x	88	-8	118
O=C(Nc1ccccc1)C1(S(=O)(=O)c2ccccc2)CC1	110	95	10	106
O=C(Nc1nccs1)C(F)(F)F	103	93	10	98
COc1ccc(-n2nc(C(=O)NCc3ccc(C)cc3)c3c4ccccc4n(C)c3c2=O)cc1Cl	100	78	x	107
Cc1cc(C(=O)NCC(C)(C)N2CCCCC2)c2c(=O)n(C)c(=O)n(C)c2n1	100	x	-20	x
Cc1ccc2occ(/C=N/O)c(=O)c2c1	103	x	-12	x
CN1C(=O)/C(=C\c2ccc3c(c2)OCO3)SC1=S	112	95	-3	100
CN(c1ccccc1)S(=O)(=O)c1nnc(NC(=O)c2ccccc2)s1	101	71	-17	107
COC(=O)c1ccc(-n2c(C)cc(-c3csc(N)n3)c2C)cc1	x	69	-3	100
Cc1cc(OC(=O)c2cccs2)n(Cc2ccc(Cl)cc2Cl)n1	x	82	-24	84
CSc1cccc(NS(=O)(=O)c2cc3[nH]c(=O)c(=O)[nH]c3cc2C)c1	101	74	x	86
COc1ccc(-c2noc(N3CCCC(C(=O)N(C)c4cccc(C(F)(F)F)c4)C3)n2)cc1 (stereo unspecified)	100	92	-36	83
O=c1c2ccccc2c(/C=N/c2ncn[nH]2)c(O)n1Cc1ccccc1	x	89	-46	99
COCC(=O)NCc1nn(-c2ccccc2)nc1C	103	86	x	105
O=C1O/C(=C/C(=O)N2CCOCC2)c2ccccc21	99	85	-18	92
O=C(c1cc(Nc2ccccc2)n[nH]1)N1CCCCC1	95	80	-8	95
O=C(O)CC1SC(c2ccc(Oc3ccc(C(F)(F)F)cn3)cc2)=NC1=O (stereo unspecified)	111	89	-8	115

Shown as labelled records: part of the list above.
CN(CC(=O)N1CCn2c1nc1ccccc12)S(=O)(=O)c1ccc2c(c1)CCC(=O)N2
  GIV-Gai inh: 103 | Sa growth 42C second temp: 85 | HCMV UL50-53 inh: 1 | Sa growth 42C: 90

COc1ccccc1Nc1cc(C(=O)NCCCN(C)C2CCCCC2)c2ccccc2n1
  GIV-Gai inh: 109 | Sa growth 42C second temp: 76 | HCMV UL50-53 inh: -5 | Sa growth 42C: 86

Cc1ccc(C2=NNC3(CCOC(C)(C)C3)S2)cc1 (stereo unspecified)
  GIV-Gai inh: x | Sa growth 42C second temp: 60 | HCMV UL50-53 inh: -11 | Sa growth 42C: 69

Cc1c(C(=O)Nc2cccc(Cl)c2)sc2nc3n(c(=O)c12)N=C(c1cccc(Br)c1)CS3
  GIV-Gai inh: 97 | Sa growth 42C second temp: 93 | HCMV UL50-53 inh: x | Sa growth 42C: 91

Back to the main list, repeating the four entries before the break.
canonical_smiles	GIV-Gai inh	Sa growth 42C second temp	HCMV UL50-53 inh	Sa growth 42C
COCC(=O)NCc1nn(-c2ccccc2)nc1C	103	86	x	105
O=C1O/C(=C/C(=O)N2CCOCC2)c2ccccc21	99	85	-18	92
O=C(c1cc(Nc2ccccc2)n[nH]1)N1CCCCC1	95	80	-8	95
O=C(O)CC1SC(c2ccc(Oc3ccc(C(F)(F)F)cn3)cc2)=NC1=O (stereo unspecified)	111	89	-8	115
Cc1ccccc1C(=O)Nc1ccc2c(c1)CCC(=O)N2	97	x	-23	x
Brc1ccc(OCc2nnc3sc(CCc4ccccc4)nn23)cc1	102	x	-15	x
Cc1cc2nnc(SCC(=O)Nc3sc(-c4ccccc4)cc3C(N)=O)n2c2ccccc12	97	x	8	x
COC(=O)c1cc(OC(=O)C23CC4CC(CC(C4)C2)C3)n(C)n1	99	77	-34	79
N#CCN1CCn2c3c(c4cc(C5CCCCC5)ccc42)CCCC31 (stereo unspecified)	101	100	-3	100
Cc1ccc(NC(=O)c2ncn(-c3ccccc3)n2)cc1F	98	x	-33	x
CCOc1cc(C)ccc1OCC(=O)O	102	93	-4	101
CC(=O)Oc1ccc(-n2c(C)cc(C=C3C(=O)N(C)C(=O)N(C)C3=O)c2C)cc1	109	x	-21	x
O=C(Cc1csc2nc(-c3ccc(F)cc3)cn12)NCc1ccc(F)cc1	101	x	-15	x
Cc1ccc(S(=O)(=O)NCCO)cc1-c1nnc2c3ccccc3c(C)nn12	99	85	-30	82
Cc1csc(NC(=O)c2sc3cc(F)ccc3c2Cl)n1	x	100	5	106
CCc1ccc2occ(CC(=O)N(Cc3ccccc3)C3CCS(=O)(=O)C3)c2c1 (stereo unspecified)	109	81	-17	117
O=C(OCc1cc(=O)oc2cc(O)ccc12)C1CC2CCCC(C1)C2=O (stereo unspecified)	x	96	-36	108
CCc1noc(-c2ccc(NC(=O)C3CC(=O)N(c4cccc(C)c4)C3)cc2)n1 (stereo unspecified)	103	x	-10	x
CCOC(=O)C1=C(N)OC2=C(C(=O)CC(C)(C)C2)C1c1cccc(Cl)c1 (stereo unspecified)	106	x	-7	x
COc1ccc(-c2noc(Nc3cc(OC)ccc3OC)n2)cc1	96	89	1	97
CCCNCC(=O)Nc1ccccc1C	x	102	9	117
CS(=O)(=O)c1[nH]nc(-c2ccccc2)c1C#N	101	93	-11	100
O=C(Cn1c(=O)nc(-c2ccccc2F)c2cc(Cl)ccc21)Nc1ccccc1C(F)(F)F	104	84	x	81
Cc1cccc(NC(=O)C2CCN(c3nc4ccccc4[nH]3)CC2)c1C	103	77	x	80
O=C(CCCn1sc2ccccc2c1=O)NCc1cccnc1	99	89	-22	103
COc1ccc(Cc2nnc(NC(=O)c3cccs3)s2)cc1OC	102	82	13	108
COc1cc(NC(=O)N2CCSc3ccccc32)cc(OC)c1OC	107	83	x	96
CC(=O)NC(O)C(=O)c1cccs1 (stereo unspecified)	100	82	-15	98
Nc1c(-c2nnc(SCc3ccc(F)cc3)n2C2CC2)sc2ncccc12	96	x	-9	x
O=C1NCC(COc2cccc3ccccc23)O1 (stereo unspecified)	101	76	-38	80
CC(C)(C)N(Cc1ccccc1)C(=O)CSc1nc(N)cc(=O)[nH]1	x	98	-12	84
CCCc1cc(=O)[nH]c(SCC(=O)N(C)Cc2ccccc2)n1	x	96	-6	102
CNC(=O)c1ccc(-c2nc(CN3CCc4ccccc43)c(C)o2)cc1	105	92	x	94
CCOc1nc2cccnc2n(C(C)C(=O)N(CC)c2cccc(C)c2)c1=O (stereo unspecified)	104&102	90	-62&-65	100
COC(=O)Cc1cc(=O)[nH]c(=S)[nH]1	x	87	-19	81
O=S(=O)(c1ccc(N2CCOCC2)nc1)N1CCOCC1	x	92	-8	87
CCc1nn(C(CC)C(=O)NCc2ccc(OC)c(OC)c2)c(=O)c2cc3oc(C)cc3n12 (stereo unspecified)	105	80	-34	114
CC(C)Oc1ccc(CNC(=O)C2CCN(C(=O)c3sccc3-n3cccc3)CC2)cc1	105	70	-31	97
Nc1nc2cc3c(cc2s1)OCO3	102	81	-42	91
CCC1CN(C(=O)N2CCC(C(=O)N3CCN(c4ccc(F)cc4)CC3)CC2)c2ccccc2O1 (stereo unspecified)	105	101	-2	121
Cc1cccc(CSc2nc(=O)c3c(n2C)NC(=O)CC3c2cccc(O)c2)c1 (stereo unspecified)	100	95	-17	110
COCCNC(=O)Cc1ccc(NC(=O)N2CCCCc3ccccc32)cc1	106	95	x	114
Cn1cnnc1SCC(=O)NC(=O)c1ccc(C(C)(C)C)cc1	x	94	14	97
COc1ccccc1N1CCN(C(=O)c2cc3c(=O)n(Cc4cccnc4)ccc3nc2C)CC1	98	89	x	85
C[C@H]1[C@@H](OC(=O)CCC(=O)O)O[C@@H]2OC3(C)CC[C@H]4[C@H](C)CC[C@@H]1[C@@]24OO3	98	81&75	-37	89&87
COc1ccccc1-c1nnc(SCC(N)=O)o1	101	88	-20	98
O=C(COCc1cc(-c2cccs2)on1)Nc1ccc(OC(F)(F)F)cc1	107	99	x	109
CNC(=O)CCCc1nc(-c2ccc(OC)cc2)no1	101	95	-6	86
COC(=O)CNC(=O)C1CC1	x	96	-4	94
CN(C(=O)c1c[nH]c2ccc(S(=O)(=O)N3CCC4(CC3)OCCO4)cc2c1=O)C1CCCCC1	96	91	x	103
Cc1cccc(C)c1-n1nnnc1SCc1cc(Cl)c2c(c1)OCCO2	x	99	-3	97
S=C(Nc1ccccn1)c1ccccc1	109	93	-24	121
CNC(=O)Cc1ccc(-n2c(=O)c3ccccc3n(CC(=O)NCc3ccc(Cl)cc3)c2=O)cc1	104	x	0	x
Cc1ccc(S(=O)(=O)NCCN2CCN(S(=O)(=O)c3ccc(C)c(C)c3C)CC2)c(C)c1C	100	77	x	108

New compounds follow:
canonical_smiles	GIV-Gai inh	Sa growth 42C second temp	HCMV UL50-53 inh	Sa growth 42C
CCC(Sc1nc2ccccc2o1)C(N)=O (stereo unspecified)	99	89	-2	120
NS(=O)(=O)c1ccc2nc3c(nc2c1)-c1cccc2cccc-3c12	x	58	2	103
O=C(Nc1ccc2c(c1)OCCO2)C1CCCCN1S(=O)(=O)c1ccc(Br)cc1 (stereo unspecified)	105	x	-9	x
O=C(Nc1ccccc1Cl)c1ccc2c(c1)C(=O)N(Cc1ccco1)C2=O	102	82	-19	122
O=C(Nc1cccc(Cl)c1)c1ccc2c(c1)CCN2S(=O)(=O)c1ccccc1	101	83	-22	102
CN(c1ccc(F)cc1)S(=O)(=O)N1CCCC(C(=O)NCc2ccccc2Cl)C1 (stereo unspecified)	109	101	x	105
CN(C(=O)CSc1nc2ccccc2o1)C1CCCCC1	x	85	-25	104
O=C(NCc1n[nH]c(=O)c2ccccc12)C(=O)NC1CCCCC1	107	x	-17	x
O=C(NCCc1csc2nc(-c3ccc(F)cc3)nn12)c1ccco1	107	96	x	88
COc1ccccc1CNC(=O)c1cn(C)c2ccc(S(=O)(=O)N(C)C3CCCCC3)cc2c1=O	101	95	-29	90
O=S(=O)(c1ccc2oc(-c3cccnc3)nc2c1)c1ccc2oc(-c3cccnc3)nc2c1	99	100	-30	97
CC12CCCCC1C1(C=CC(=O)C=C1)C(c1ccccc1)=N2 (stereo unspecified)	x	92	-8	114
COc1ccc(-c2noc(CN(C(=O)Nc3ccc(C)cc3)C(C)C)n2)cc1	105	91	1	107
CC(C)c1ccc(NC(=O)CSc2nc(=O)n(Cc3ccccn3)c3c2CCC3)cc1	100	99	x	101
CCn1cc(S(=O)(=O)c2ccccc2)c(=O)c2cc(F)c(F)cc21	106	85	-10	107
c1ccc(Oc2ccc(-n3cnnn3)cc2)cc1	x	92	-12	94
CN(C)c1nc2ncnc(SCC(=O)Nc3ccc4c(c3)OCCO4)c2s1	110	x	-23	x
CC(C)C(NC(=O)COc1ccc(Br)cc1)C(=O)O (stereo unspecified)	106	76	-20	90
Cc1ccc(S(=O)(=O)N(Cc2nccn2C)C(C)C)cc1	102	78	-30	99
O=C(NCc1cccc(Cl)c1)c1ccc(NC(=O)N2CCSc3ccccc32)cc1	102&102	82	-23&-7	109
COc1ccc(N2C(=O)c3cc4ccsc4n3CC2(C)C(=O)NCc2ccccc2OC)cc1 (stereo unspecified)	105	x	-34	x
Cc1cc(C)c2c(N=CN(C)C)c(C(=O)N3CCN(c4ncccn4)CC3)sc2n1	107	86	-24	91
CCOc1ccc(CCNC(=O)c2coc(=O)c3ccccc23)cc1OCC	99	87	-4	103
NC(=O)c1c(NC(=O)COCc2cc(-c3ccc4c(c3)OCO4)on2)sc2c1CCCC2	99	x	4	x
CCCNC(=O)NC1CCN(c2nc3ccccc3s2)CC1	95	92	-7	101
CCN(CC)Cc1c(C)c(C)c(C)c(C)c1C	99	90	7	79
OCCNc1ccc(C(F)(F)F)cn1	101	92	-18	105
NC(=O)c1c(NC(=O)CN(C(=O)c2cccs2)C2CCCC2)sc2c1CCCC2	103	80	-27	91
O=C1NC(=S)N/C1=C/c1ccc(-c2ccc([N+](=O)[O-])cc2Br)o1	109	x	-30	x
CCNC(=O)CC1C(=O)N(c2ccc(F)cc2)C(=O)N1Cc1ccc(OC)c(OC)c1 (stereo unspecified)	95	99	8	79
CC(=O)N=Nc1c(O)[nH]c2ccc(F)cc12	101	83	-125	83
CCOc1ccccc1NC(=O)Cn1c(CC)nc2ccccc21	x	81	-38	110
